Bioassay records deposited in PubChem BioAssay by National Center for Advancing Translational Sciences (NCATS).
2A Renilla – lowers the Renilla signal of an FMDV 2A StopGo reporter. 0.32% of 120,000 active. HEK cells with a luciferase reporter of 2A StopGo recoding. Potency, µM (doses to about 57.5 µM), for inactives: at the top dose signal change, negative = less light. AID 1745857; active means well fitted falling curve with a large enough effect; inconclusive means small, poorly fitted or top-dose-only effect; inactive means no such curve, though single readings can be large or run the other way; also: nearly all actives have a fitted effect of over 55% in size; overnight with compound
StopGo FLuc – lowers the firefly signal of an FMDV 2A StopGo reporter; HEK cells with a luciferase reporter of 2A StopGo recoding; Potency, µM (top dose mostly 57.5 µM), inactives show at the highest dose signal change, negative = less light; 0.23% of 120,000 active; AID 1745856; active = well fitted falling curve with a large enough effect; inconclusive = small, poorly fitted or top-dose-only effect; inactive = no such curve, though single readings can be large or run the other way; also: nearly all actives have a fitted effect of over 60% in size; overnight with compound
* hit, by the source's call; ? = inconclusive; & = joins results of further samples; [ ] = dose if it differs, or a comment. % is scaled to controls: 0 for no effect and ±100 for the full control effect; potency is read from the fitted curve at half-maximal effect. These rows are one share of the data (hit frequency here may not be typical).

smiles | 2A Renilla | StopGo FLuc
CCOC(=O)NNc1nncc2ccccc12 | -9% | -4%
CC(=O)Oc1ccc2c(c1)CC[C@@H]1[C@@H]2CC[C@]2(C)[C@@H](O)CC[C@@H]12 | 12% | 19%[11.5 µM]
NCCNC(=O)c1ccc(Cl)cn1 | -10% | -21%
CCCCOc1ccc(CC(=O)NO)cc1 | -2% | -6%[11.5 µM]
CCOC(=O)CN1CCCC1=O | -4% | -12%
O=C(O)CCCC[P+](c1ccccc1)(c1ccccc1)c1ccccc1 | -14% | -9%
C/C=C/C=N/NC(=O)c1ccncc1 | 2% | -6%[11.5 µM]
CCC(Sc1nc2ccccc2c2nc(CCn3cncc3C)nn12)C(=O)Nc1cccc(OC)c1 (stereo not given) | -12% | -13%
CCC(=O)O[C@]1(C(=O)SCF)[C@H](C)C[C@H]2[C@@H]3C[C@H](F)C4=CC(=O)C=C[C@]4(C)[C@@]3(F)[C@@H](O)C[C@@]21C | 14% | 11%
OCc1ccccn1 | -12% | -21%
CCc1c2c(nc3ccc(OC(=O)N4CCC(N5CCCCC5)CC4)cc13)-c1cc3c(c(=O)n1C2)COC(=O)[C@]3(O)CC | -10% | -6%
Cc1cccc(Nc2cc(Cl)nc(SCC(=O)O)n2)c1C | -16% | -16%
CC(C)(C)c1nnc(NS(=O)(=O)c2ccccc2)s1 | 21% | -9%
CO/N=C(\C(=O)O)c1csc(NC(=O)CCl)n1 | 1% | -11%[11.5 µM]
CC(C)(C)c1ccc(C(=O)CCCCl)cc1 | 4% | 44%[activator][11.5 µM]
CC[C@]1(O)C[C@@H]2CN(CCc3c([nH]c4ccccc34)[C@@](C(=O)OC)(c3cc4c(cc3OC)N(C)[C@H]3[C@@](O)(C(=O)OC)[C@H](OC(C)=O)[C@]5(CC)C=CCN6CC[C@]43[C@@H]65)C2)C1 | 30%&-7% | 20%[11.5 µM]
O=C(O)CNC(=O)c1ccccc1 | -2% | -8%
C/C(=N\O)c1ccc(OCC(=O)N2CCCCC2)cc1 | 2% | 79%[activator]
C=CCNc1nc(NCC=C)nc(N2CCN(C(c3ccc(F)cc3)c3ccc(F)cc3)CC2)n1 | ? | -29%
C/C(=N\NC(=O)c1cccc(C)c1)C1CC1 | 8% | 91%[activator]
CCCCCCCCCCCCCCNCCO | 2% | 4%
CNc1c2c(nn1C)CCCC2 | -8% | -13%
Cc1cc(C)cc(OCC2CNC(=O)O2)c1 (stereo not given) | -10% | -18%[11.5 µM]
COc1ccc(/C=N/NC(=O)c2ccncc2)cc1OC | -4% | 15%[11.5 µM]
Cc1cccc(C)c1NC(=O)CN(CC(=O)O)CC(=O)O | -3% | -15%[11.5 µM]
CN(C)CCOc1ccccc1Cc1ccccc1 | -13% | -20%
Cc1c(F)cc2c(=O)c(C(=O)O)cn3c2c1CCC3C (stereo not given) | -3% | -12%
Nc1ncnc2nc[nH]c12 | 2% | -5%
CCn1cc(C(=O)O)c(=O)c2cc(F)c(N3CCNCC3)nc21 | -8% | -9%
O=C(Nc1ccc(Cl)c(Cl)c1)C1CC1 | -12% | -5%
CC(=O)Nc1ccc(S(=O)(=O)Nc2cc(C)on2)cc1 | -6% | -10%[11.5 µM]
C/C(=C(\CCO)SS/C(CCO)=C(\C)N(C=O)Cc1cnc(C)nc1N)N(C=O)Cc1cnc(C)nc1N | -5% | 7%[11.5 µM]
CC(=O)Nc1ncc([N+](=O)[O-])s1 | 34%[activator] | 11%[11.5 µM]
Nc1c2c(nc3ccccc13)CCCC2O (stereo not given) | -7% | -11%[11.5 µM]
COc1cc([C@H]2Oc3cc([C@H]4Oc5cc(O)cc(O)c5C(=O)[C@@H]4O)ccc3O[C@@H]2CO)ccc1O | -3% | ?
CCOc1ccc(NC(=O)Cn2cc(C(=O)c3cccs3)c3ccccc32)cc1 | -2% | 8%
Cc1ccnc(NC(c2cccc(O)c2)c2ccc3ccc(C)nc3c2O)c1 (stereo not given) | -3% | -1%
O=C(CS(=O)Cc1ccco1)NC/C=C\COc1cc(CN2CCCCC2)ccn1 (stereo not given) | -5% | 1%[11.5 µM]
C=CCOc1cc(Cl)ccc1C(=O)NCCN(CC)CC | -14% | -21%
CCCOC(C(=O)OC1CCN(C)CC1)(c1ccccc1)c1ccccc1 | -9% | -2%[11.5 µM]
Cc1ccccc1C(=O)Nc1cccc(-c2nc3cccnc3s2)c1 | -5% | 3%
COc1ccccc1OCCNCC(O)COc1cccc2[nH]c3ccccc3c12 (stereo not given) | 4% | -11%
C=C1c2cccc(O)c2C(O)=C2C(=O)[C@]3(O)C(O)=C(C(N)=O)C(=O)[C@@H](N(C)C)[C@@H]3[C@@H](O)[C@H]12 | -10% | -4%[11.5 µM]
CCCCCCCCCCCCCCCC(=O)O | -1% | -7%
NS(=O)(=O)c1cc(-c2nn[nH]n2)c(NCc2cccs2)cc1Cl | -14% | -5%
Cn1c(=O)c2c(ncn2CCO)n(C)c1=O | -9% | -8%[11.5 µM]
Cc1ccc2nc(N)[nH]c(=O)c2c1Sc1ccncc1 | 28% | -3%
CC(=O)Nc1ccccc1 | -4% | -12%
CCCOC(=O)c1ccc(O)cc1 | 8%[114 µM] | 43%[activator][115 µM]
COc1ccc2nc(NC(=O)Nc3ccccc3)sc2c1 | -9% | 106%[activator][11.5 µM]
CCCCCCCCCCCCCC[N+](C)(C)Cc1ccccc1 | 25µM* | ?
NC1(c2ccc(-c3nc4ccn5c(=O)[nH]nc5c4cc3-c3ccccc3)cc2)CCC1 | ? | -24%[11.5 µM]
CCCCC1C(=O)N(c2ccccc2)N(c2ccccc2)C1=O | -6% | 0%
O=C(NN1CCCC1)NS(=O)(=O)c1ccc(Cl)cc1 | -12% | -20%
CCCCCCc1ccc(O)cc1O | 12% | 24%
COc1ccc(S(=O)(=O)N2c3ccc(Cl)cc3[C@@](O)(c3ccccc3Cl)[C@H]2C(=O)N2CCC[C@@H]2C(N)=O)cc1OC | 4% | -14%
Cc1cc2c(cc1CC(=O)c1sccc1S(=O)(=O)Nc1onc(C)c1Cl)OCO2 | 11% | -13%
Cc1cccc(NC(c2ccccc2F)c2ccc3ccc(C)nc3c2O)n1 (stereo not given) | -13% | -7%
CCCCCCCCCCCCCCCCCC(=O)O | -6% | 0%[11.5 µM]
NC(N)=NC(=O)Cc1c(Cl)cccc1Cl | -12% | -7%[11.5 µM]

A second format for part of the listing above.
> Nc1c2c(nc3ccccc13)CCCC2O (stereo not given)
  2A Renilla: -7% | StopGo FLuc: -11%[11.5 µM]

> COc1cc([C@H]2Oc3cc([C@H]4Oc5cc(O)cc(O)c5C(=O)[C@@H]4O)ccc3O[C@@H]2CO)ccc1O
  2A Renilla: -3% | StopGo FLuc: ?

> CCOc1ccc(NC(=O)Cn2cc(C(=O)c3cccs3)c3ccccc32)cc1
  2A Renilla: -2% | StopGo FLuc: 8%

> Cc1ccnc(NC(c2cccc(O)c2)c2ccc3ccc(C)nc3c2O)c1 (stereo not given)
  2A Renilla: -3% | StopGo FLuc: -1%

Five structures from above, sorted by molar mass, highest first:
smiles | 2A Renilla | StopGo FLuc
C/C(=C(\CCO)SS/C(CCO)=C(\C)N(C=O)Cc1cnc(C)nc1N)N(C=O)Cc1cnc(C)nc1N | -5% | 7%[11.5 µM]
Cc1cc2c(cc1CC(=O)c1sccc1S(=O)(=O)Nc1onc(C)c1Cl)OCO2 | 11% | -13%
O=C(NN1CCCC1)NS(=O)(=O)c1ccc(Cl)cc1 | -12% | -20%
COc1ccc2nc(NC(=O)Nc3ccccc3)sc2c1 | -9% | 106%[activator][11.5 µM]
CCCCCCc1ccc(O)cc1O | 12% | 24%

3 records drawn at random from the list so far, as already listed:
smiles | 2A Renilla | StopGo FLuc
CCCCC1C(=O)N(c2ccccc2)N(c2ccccc2)C1=O | -6% | 0%
Cc1ccccc1C(=O)Nc1cccc(-c2nc3cccnc3s2)c1 | -5% | 3%
COc1ccccc1OCCNCC(O)COc1cccc2[nH]c3ccccc3c12 (stereo not given) | 4% | -11%

(continued)
smiles | 2A Renilla | StopGo FLuc
CC(C)[C@@H]1CC[C@@H](C)CC1=O | -7% | -14%[11.5 µM]
COc1ccc(CN2CCN(C(c3ccc(F)cc3)c3ccc(F)cc3)CC2)c(OC)c1OC | ? | -14%[11.5 µM]
Cc1ccc(Nc2nc3ccccc3c3nnc(C)n23)c(C)c1 | -3% | -4%
CNC1CCCN(c2c(F)cc3c(=O)c(C(=O)O)cn(C4CC4)c3c2OC)C1 (stereo not given) | -17% | -17%
NNC(=O)CP(=O)(c1ccccc1)c1ccccc1 | -1% | -16%
O=C(CCc1c[nH]c2ccccc12)N1CCN(CC(=O)N2CCCC2)CC1 | -6% | -6%
CC(C)OP(=O)(CP(=O)(OC(C)C)OC(C)C)OC(C)C | -11% | -19%
O=C(Nc1ccc(C(=O)O)c(O)c1)c1ccccc1 | -14% | -20%
COc1ccc(CNC(=O)Nc2ccc3c(c2)N(C)C(=O)c2ccccc2S3)cc1OC | -25% | -40%
CC1(C)OC(=O)Nc2ccc(Br)cc21 | 0% | -18%[11.5 µM]
COc1ccc(OCC(=O)Nc2cc(-c3nc4ccccc4s3)ccc2C)cc1 | -3% | 77%[activator]
Cc1cccc2nc(-c3ccccn3)c(Nc3ccccc3)n12 | ? | ?
Cc1ccccc1Cc1c(C)nc2c(-c3ccccc3)c(C)[nH]n2c1=O | -6% | -10%
Cc1ccc(NC(=O)Cn2c(=O)n(CCC(=O)N3CCc4ccccc4C3)c(=O)c3ccccc32)c(C)c1 | -4% | -8%
CC(C)c1ccc(-n2ncc3c(=O)n(CC(=O)Nc4cc(F)ccc4Cl)cnc32)cc1 | -9% | 24%
O=C(O)COCc1ccccc1Cl | -6% | 0%
